# Bioassay records from PubChem.
# Rango-impB inh = prevents formation of the Rango-importin beta complex. hit rate 0.031% among 340,000. Potency, µM (doses to about 92.2 µM), for inactives: at the highest dose inhibition of complex formation. Rango CFP/YFP FRET sensor + importin beta, 45 min; active = rising FRET ratio curve, often small or poorly fitted; inconclusive = mostly compound fluorescence or quenching in the first reads; inactive = flat curves in all reads;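 further: potency means the concentration at half of the fitted maximal effect; 0% = DMSO wells and 100% = buffer wells lacking importin beta; nearly all actives have a fitted effect of over 15% in size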
#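 FRET biosensor Rango (snurportin 1 IBB between N-terminal EYFP and C-terminal Cerulean), 50 nM in PBS/1 mM DTT/0.02% Tween-20/0.1% BSA, preincubated 5 min RT with compound; 0.125 microM importin beta added, 45 min RT, CFP/YFP FRET ratio read.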
# GLA inh pH 4.5 = inhibitors of human alpha-galactosidase A at pH 4.5 | AID 1467 | 230,000 tested, under 10 active | purified enzyme, 4-MU-alpha-Gal fluorescence, pH 4.5 | activity change, negative = inhibition, % at 105 µM | P06280; inconclusive = small, poorly fitted or top-dose-only inhibition, or a rising curve; inactive = flat fitted curve, though single readings scatter; no compound was filed as active;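 further: 0% = full activity with enzyme and -100% = basal without enzyme; dose as in the result columns while the protocol names 77 µM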
# Target sequence (P06280 whole entry, looked up): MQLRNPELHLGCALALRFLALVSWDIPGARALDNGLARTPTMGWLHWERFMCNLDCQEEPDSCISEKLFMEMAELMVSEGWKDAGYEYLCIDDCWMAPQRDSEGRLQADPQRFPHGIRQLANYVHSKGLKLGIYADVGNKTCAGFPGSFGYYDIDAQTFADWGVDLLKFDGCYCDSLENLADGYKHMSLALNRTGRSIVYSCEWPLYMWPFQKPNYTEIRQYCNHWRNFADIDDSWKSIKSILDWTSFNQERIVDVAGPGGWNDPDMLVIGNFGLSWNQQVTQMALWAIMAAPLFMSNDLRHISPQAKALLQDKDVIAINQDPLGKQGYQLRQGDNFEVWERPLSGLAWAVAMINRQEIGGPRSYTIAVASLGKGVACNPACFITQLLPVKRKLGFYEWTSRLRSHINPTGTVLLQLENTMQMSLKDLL
# miR-21 FLuc = raises the signal of a miR-21 reporter. 340,000 tested, under 10 active. Potency, µM (doses to about 38.3 µM), for the others: at the highest dose reporter change, positive = more light. AID 2288. HeLa miR-21 FLuc reporter, luciferase, 48 h; active = well fitted rising curve with a large enough effect; inconclusive = small, poorly fitted or top-dose-only effect; inactive = no such curve, though single readings can be large or run the other way;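 further: % of control where 0% means no effect; miR-21 action dims this reporter so a rising signal means less miR-21 action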
#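 HeLa miR-21-FLuc reporter line, endogenous miR-21; 2000 cells/well in DMEM/10% FBS; compound titration up to ~40uM final, 48 h, 37 degree Celsius; luciferase detection reagent, 15 min lysis, CCD luminescence.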
# Rango dissoc inh = inhibition of RanGTP-driven Rango-importin beta dissociation. O95149+P62826. Biochemical FRET Rango-importin beta, RanGTP-induced dissociation. Potency, µM (highest dose often 46.1 µM), inactives show top-dose activity change, negative = inhibition. hit rate 0.071% among 340,000; active means falling FRET ratio curve, often poorly fitted, with flat reads before Ran was added; inconclusive means other falling curves, or compound fluorescence or quenching; inactive means flat or rising ratio curve;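 further: potency means the concentration at half of the fitted maximal effect; % of control where 0% means no effect; nearly all actives have a fitted effect of over 45% in size; -100% = wells without RanGTP and RCC1; the record marks most hits as doubtful in a second field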
#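 Rango (0.1 uM)–importin beta (0.25 uM) complex; RanGTP-RCC1 trigger; 45 min RT; CFP/YFP FRET read.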
# Active calls of the source: *; ? = inconclusive; · = not tested or not shown; & = joins results of further samples; [ ] = dose if it differs, or a comment. These rows are one share of the data; count on the stated rates, not on these rows.
SMILES,Rango-impB inh,GLA inh pH 4.5,miR-21 FLuc,Rango dissoc inh
COc1cccc(NC(=O)CN2C(=O)CSc3ccc(S(=O)(=O)N4CCOCC4)cc32)c1,1.0%,·,-1%,-15%
CCc1nnc(NC(=O)CCc2ccc(C)o2)s1,4.5%,0,-5%,-17%
CCOCCn1ccc2c(OCC(=O)Nc3ccc(OC)cc3OC)cccc2c1=O,-0.7%,·,·,-13%
COc1ccc(NC(=O)CN2C(=O)NC3(CCCCCCC3)C2=O)cc1,4.9%,·,·,-13%
CCN1CCN(c2cc(=O)n(C3CCCCC3)c(=O)[nH]2)CC1,0.6%,7,0%,14%
O=C1[C@@H]2Cc3c([nH]c4ccccc34)C(c3ccccc3)N2C(=O)CN1CCO (some centres undefined),-0.4%,·,-6%,-7%
C[C@H](CO)N1C[C@H](C)[C@@H](CN(C)S(C)(=O)=O)Oc2ccc(NC(=O)CCN3CCOCC3)cc2C1=O,0.5%,·,·,-13%
Cn1c2ccc(F)cc2c2nnc(SCCN3CCCCC3)nc21,7.6%,·,-8%&1%,-2%
COC(=O)C1CCN(C(=O)c2ccccc2NC(C)=O)CC1,1.0%,-9,-6%,2%
COc1ccccc1NC(=O)c1nc(S(=O)(=O)Cc2ccccc2)ncc1Cl,?,·,?,-20%
Cc1ccc(-c2nn(-c3ccccc3)cc2CC(=S)N2CCOCC2)cc1,-1.0%,·,-7%,-9%
Cc1ccc(C(c2nnnn2CC2CCCO2)N2CCN(c3cccc(C)c3C)CC2)cc1 (centres undefined),-0.5%,-10,-3%,3%
O=C(NC(=S)Nc1ccccc1N1CCCC1)c1ccc([N+](=O)[O-])cc1,1.8%,4,-15%,-9%
O=C(Oc1cccc2c(O)cccc12)c1ccccc1Cl,0.0%,·,·,0%
CN(C)CCC(O)(c1ccccc1)c1ccccc1,-2.4%,-14,-1%,2%
Cc1cccc(-n2c(N)cc(=O)[nH]c2=S)c1,-1.2%,6,-3%,2%
Cc1cc(C(=O)Nc2ccc(Br)cc2F)n(-c2ccccc2)n1,-4.8%,·,-7%,-9%
OCCC1CN(Cc2ccccc2O)CCN1CCc1ccccc1 (centres undefined),0.4%,2,-4%,-7%
O=C(NN1C(=O)C2C3C=CC(C3)[C@H]2C1=O)c1cccnc1 (some centres undefined),0.6%,-4,-1%,-3%
COCCN(CC1CCCN(C2Cc3ccccc3C2)C1)C(=O)c1cccs1 (centres undefined),1.0%,·,-31%,-1%

# Another view of some results above.
canonical_smiles | Rango-impB inh | GLA inh pH 4.5 | miR-21 FLuc | Rango dissoc inh
O=C(NC(=S)Nc1ccccc1N1CCCC1)c1ccc([N+](=O)[O-])cc1 | 1.8% | 4 | -15% | -9%
O=C(Oc1cccc2c(O)cccc12)c1ccccc1Cl | 0.0% | · | · | 0%
CN(C)CCC(O)(c1ccccc1)c1ccccc1 | -2.4% | -14 | -1% | 2%
Cc1cccc(-n2c(N)cc(=O)[nH]c2=S)c1 | -1.2% | 6 | -3% | 2%
Cc1cc(C(=O)Nc2ccc(Br)cc2F)n(-c2ccccc2)n1 | -4.8% | · | -7% | -9%
OCCC1CN(Cc2ccccc2O)CCN1CCc1ccccc1 (centres undefined) | 0.4% | 2 | -4% | -7%
O=C(NN1C(=O)C2C3C=CC(C3)[C@H]2C1=O)c1cccnc1 (some centres undefined) | 0.6% | -4 | -1% | -3%

# The results go on.
SMILES,Rango-impB inh,GLA inh pH 4.5,miR-21 FLuc,Rango dissoc inh
CCc1cccc(C)c1NC(=O)C1CC(=O)N(C2CCCC2)C1 (centres undefined),3.1%,·,·,1%
CCc1c(O)nc(SCC(=O)NC(C)(C)C)n(-c2ccccc2)c1=O,-2.1%,-8,-3%,-26%
Cc1nc2nc(CCNS(=O)(=O)c3ccc(Cl)cc3)cn2nc1C,?,·,-1%,?
CC(=O)Nc1ccc(Oc2ccc(S(=O)(=O)N3CCCC3)cn2)cc1,2.1%,·,·,10%
Cc1nnc(SCc2nnc(-c3ccccc3Br)o2)s1,1.0%,5,-37%,8%
CC(C)N(C(=O)CSc1nn2c(=O)c(C(C)(C)C)nnc2s1)c1ccccc1,1.3%,-4,0%,0%
C=C(C)C(=O)Nc1cccc(C2=NOC3(C2)C[C@H](C(N)=O)N(C(=O)C(c2ccccc2)c2ccccc2)C3)c1 (some centres undefined),-3.6%,-9,7%,1%
Nc1nc(-c2ccc(Br)s2)c(Br)s1,1.0%,-9,-30%,6%
CC(=O)c1sc(NC(=O)CCS(=O)(=O)c2ccccc2)nc1C,-2.7%,·,11%,6%
CCOc1c2ccc(C(=O)NCc3cc(C(F)(F)F)cc(C(F)(F)F)c3)cc2nn1C,0.3%,0,-1%,12%
CCOC(=O)N1CCN(C(=O)COC(=O)CSc2cc(C)c(Br)cc2C)CC1,-0.2%,·,·,31%
ClC1(Cl)CC1CSc1nc2ccccc2[nH]1 (centres undefined),1.0%,-6,-76%,9%
Cc1ccc(C(=O)Oc2ccc3c(c2)ncn3C)cc1,-2.6%,-8,-7%,6%
Cc1csc(C2=C(O)CN(CCc3ccccc3)C2=N)n1,?,4,-2%,-7%
CCCSc1ccc([C@@H]2[C@@H]3C(=O)N(CC)C(=O)[C@@H]3[C@]3(C(=O)OC)CCCCN23)cc1,0.4%,·,·,0%
COc1ccc(-n2c(C(C)(C)C)csc2=Nc2c(C)n(C)n(-c3ccccc3)c2=O)cc1,0.1%,5,-7%,-10%
CN1C(=O)/C(=C/C=C2\SCCN2C)N(C)C1=S,1.0%,-11[21.1 µM],-52%,-2%
Cc1ccc2c(c1)c1nnc(SCC(=O)Nc3cccc(Cl)c3C)nc1n2CC(=O)O,-1.7%,-6,1%,16%
COc1ccc2cc[nH]c2c1,-3.4%,·,2%,-3%
CCC(=O)N(Cc1cc2c(C)cc(C)cc2[nH]c1=O)C1CCCCC1,0.6%,-3,-8%,12%
Cn1c(C(=O)N2CCN(Cc3ccccc3)CC2)cc2c(=O)n(C)c3ccccc3c21,4.2%,-1,1%,?
CCNC(=O)COc1cc(C)c(Br)c(C)c1,-1.2%,-7,-12%,1%
COc1ccc(NC(=S)N2CCN(C(c3ccccc3)c3ccccc3)CC2)c(OC)c1,3.2%,-21,0%,2%
Cc1nn(C)c(Oc2ccc(Cl)cc2)c1C=O,1.5%,-13,0%,13%
Cc1cc(NCc2ccccc2Cl)n2nnnc2n1,2.1%,-4,-1%,12%
CCOc1ccc(N2CC(C(=O)Nc3cccc(S(=O)(=O)N4CCCCC4)c3)CC2=O)cc1 (centres undefined),-0.7%,-10,9%,-27%
NC(=O)C1CCN(CC(=O)Nc2cc(Cl)ccc2Oc2ccccc2)CC1,-1.1%,3,-8%,-7%
Cc1cc(=O)[nH]c(=S)[nH]1,-1.0%,-19&5,0%,13%
Cc1cc(C)nc(-n2ncc3c2CC(C)CC3=O)n1 (centres undefined),0.4%,5,-2%,13%
COc1cccc(OCc2nn[nH]n2)c1,-0.7%,·,2%,12%
CC(C)C(NC(=O)c1ccc(Br)cc1)C(=O)NC1=NCCS1 (centres undefined),3.2%,0,-6%,1%
Cc1cc2c(cc1S(=O)(=O)Nc1cccc(C)c1C)n(C)c(=O)c(=O)n2C,-4.6%,·,-1%,0%
CC1CCN(c2nc3c(c(=O)[nH]c(=O)n3C)n2Cc2ccccc2Cl)CC1,-0.5%,-4,-15%,-2%
Cc1ccc(S(=O)(=O)NCC(=O)OCc2csc(-c3ccccc3)n2)cc1,-0.5%,-13,-38%,0%
Cc1ccsc1C(C(=O)NCc1ccccc1)N(C(=O)c1csnn1)c1ccccc1 (centres undefined),8.0%,·,-4%,8%
Clc1ccc(Nc2nc(NCCN3CCOCC3)nc(N3CCOCC3)n2)cc1,3.4%,-4,-11%,6%
CCOc1cc(N2CCOCC2)c(OCC)cc1NC(=O)CN1CCN(Cc2ccc3c(c2)OCO3)CC1,-3.3%,-11,-2%,5%
CN1CCN(NC(=O)/C=C/c2cccc([N+](=O)[O-])c2)CC1,0.7%,·,-2%,-6%
CCOC(=O)c1cnc2oc3ccccc3n2c1=O,?,·,-15%,-8%
CC(=O)c1ccc(C(=O)N2CCCC(Nc3ccccc3)C2)s1 (centres undefined),-1.5%,·,-6%,-4%
CC(=O)Cc1nsc(NC(=O)c2cccs2)n1,0.5%,-6,-16%,-1%
COc1ccc(N(C(=O)c2ccncc2)S(=O)(=O)c2ccccc2)cc1,-2.2%,·,-5%,22%
N#Cc1ccc(OCC(=O)Nc2cc(S(=O)(=O)N3CCOCC3)ccc2N2CCOCC2)cc1,-2.3%,3,0%,-12%
O=C(O)c1c(F)c(F)cc2ccccc12,4.3%,1,1%,18%
O=c1c2ccccc2nc2sc(Nc3ccc(F)cc3)nn12,-0.8%,·,·,-4%
Cc1ccc(SCC(=O)N(C)CC(=O)Nc2cccc(F)c2)c(C)c1,1.8%,·,·,-1%
CCn1c(COc2ccc3c(c2)CCCC3)nnc1SCC(=O)Nc1nccs1,-2.2%,1,-5%,?
Cc1cc2oc(C(=O)NCc3ccncc3)c(C)c2cc1C,-1.8%,-12,1%,7%
CCCCCCc1cc2cc(-c3nnc(-c4ccccc4OC)o3)c(=O)oc2cc1O,?,-17,8%,?
Oc1[nH]c2ccccc2c1OCc1ccncc1,6.1%,10,-2%,-6%
COC(=O)c1ccc(C)c(NC(=O)c2ccc(CN3CCc4ccccc4C3)cc2)c1,0.0%,·,1%,0%
Cc1ccc(S(=O)(=O)Nc2c(C)ccc3nsnc23)cc1,0.6%,2,1%,14%
O=C(NC1CCCC1)C(c1ccncc1)N(Cc1ccccc1)C(=O)Cc1cccs1 (centres undefined),-3.6%,6,-19%,-9%
COc1cccc2cc(C(C)N(CCCN3CCOCC3)C(=S)Nc3ccc(C)cc3)oc12 (centres undefined),0.4%,-3,-2%,4%
COc1ccc(C(=O)OCC(=O)c2cc(C)n(CC3CCCO3)c2C)cc1[N+](=O)[O-] (centres undefined),0.3%,·,·,13%
COc1ccc(C(=O)N2CCN(c3ccccc3)CC2)cc1S(=O)(=O)NC1CC1,-2.0%,·,·,-11%
COc1ccc(Cl)cc1N(CC(=O)NC1CC2CCC1C2)S(=O)(=O)c1ccccc1 (centres undefined),0.7%,·,8%,1%
COC(=O)C1=C(C)N(CCCC(=O)O)C(=O)NC1c1cccc(OC)c1 (centres undefined),2.5%,·,·,-2%
CCn1c(CCCNC(=O)c2cccs2)nc2ccccc21,-3.4%,8,-1%,11%
O=C1CCn2nc(-c3ccc(Cl)cc3)cc2N1,-0.4%,-1,-76%,?

# Next entries follow.
SMILES,Rango-impB inh,GLA inh pH 4.5,miR-21 FLuc,Rango dissoc inh
N#CCC(=O)Nc1ccc(C(=O)OCC(=O)NC(=O)NCc2ccco2)cc1,?,·,·,-10%
COc1ccc(/C=N/n2c(COc3ccccc3)n[nH]c2=S)cc1OC,0.3%,·,-34%,1%
Cc1cccc(Nc2nnc(SCC(=O)Nc3ncc(C(F)(F)F)cc3Cl)s2)c1C,-1.6%,-3,-3%,-16%
Cn1c(SCC(=O)NC(=O)c2cccc([N+](=O)[O-])c2)nnc1-c1ccc(F)cc1,-0.8%,5,-3%,2%
COc1ccc(Cl)cc1C(=O)NNC(=O)c1ccncc1,-1.9%,·,-9%,-21%
O=C(NO)c1cc(OCC(F)(F)F)ccc1OCC(F)(F)F,-7.3%,5,5%,6%
CC1CC(C)CN(S(=O)(=O)c2ccc(C(=O)N3CCN(c4ccccc4)CC3)cc2)C1 (centres undefined),-1.0%,-3,12%,-8%
O=C(CSc1nccc(=O)[nH]1)Nc1ccc2c(c1)OCCO2,1.7%,-2,-53%,1%
COc1ccc(S(=O)(=O)N2CCCCC2C(=O)O)cc1OC (centres undefined),2.6%,8,-3%,12%
CCc1nc(N2CCN(C(=O)c3ccco3)CC2)c2oc3ccccc3c2n1,3.5%,-3,23%,11%
N#C/C(=C\c1cccs1)Sc1nc2ccccc2s1,2.2%,-10,-27%,27%
CCOc1ccc(N(C)C(=O)CCc2nnc3ccc(N4CCC5(CC4)OCCO5)nn23)cc1,-3.0%,·,2%,3%
COc1ccc(CN2CCN(C(=O)c3cccc4ccccc34)CC2)cc1OC,-0.9%,·,3%,-5%
